Assay outcomes: PubChem, Johns Hopkins Ion Channel Center
KCNQ2 pot: potentiators of rat KCNQ2 potassium channel; B-score at 10 µM; CHO-K1 KCNQ2, FluxOR thallium flux fluorescence; active compounds read high; actives 0.54% (n = 310,000); Potassium voltage-gated channel subfamily KQT member 2 (Rattus norvegicus), O88943;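 active = fluorescence ratio B-score at least 3 SD of library B-scores, with initial fluorescence B-score within 3 SD, cut at about 5.3 in these data; same plate scores as AID 2156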;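 note: B-score of peak minus minimum over baseline fluorescence ratio after K+ and Tl+ stimulus; positive B-score means potentiation of KCNQ2 with more thallium influx and brighter signal; only the inactives scoring about 0 or higher are listed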
Target sequence (O88943 whole entry, looked up): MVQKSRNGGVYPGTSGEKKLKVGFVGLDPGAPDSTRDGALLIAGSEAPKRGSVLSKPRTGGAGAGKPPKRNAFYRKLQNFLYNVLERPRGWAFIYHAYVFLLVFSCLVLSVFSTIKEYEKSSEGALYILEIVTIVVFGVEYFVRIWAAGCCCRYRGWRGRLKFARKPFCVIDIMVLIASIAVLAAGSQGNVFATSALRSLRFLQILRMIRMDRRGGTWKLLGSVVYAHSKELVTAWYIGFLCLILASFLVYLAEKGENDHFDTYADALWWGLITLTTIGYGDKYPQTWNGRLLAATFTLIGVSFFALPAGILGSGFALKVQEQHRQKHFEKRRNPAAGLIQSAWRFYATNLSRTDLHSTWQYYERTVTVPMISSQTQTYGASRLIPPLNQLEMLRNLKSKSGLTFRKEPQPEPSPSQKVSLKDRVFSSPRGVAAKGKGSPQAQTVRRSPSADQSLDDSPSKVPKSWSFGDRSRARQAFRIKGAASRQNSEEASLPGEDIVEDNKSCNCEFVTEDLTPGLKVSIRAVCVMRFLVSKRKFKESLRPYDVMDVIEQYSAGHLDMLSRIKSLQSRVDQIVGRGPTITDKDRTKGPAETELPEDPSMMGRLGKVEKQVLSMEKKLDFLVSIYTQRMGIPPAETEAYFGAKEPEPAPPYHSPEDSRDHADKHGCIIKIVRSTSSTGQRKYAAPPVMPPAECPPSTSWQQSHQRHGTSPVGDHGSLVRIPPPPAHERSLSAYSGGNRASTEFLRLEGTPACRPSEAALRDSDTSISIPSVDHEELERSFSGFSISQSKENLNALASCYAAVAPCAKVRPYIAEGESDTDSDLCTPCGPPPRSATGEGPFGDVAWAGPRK
KCNQ2 pot baseline: also measured in KCNQ2 pot; calls as there; B-score; compound at 10 µM; measured here: initial fluorescence intensity artifact check;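 brightness before thallium and not channel activity; 0 = typical well and far values either way flag optical interference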
Active calls of the source: *. A portion of the library; rates above refer to the full screens.

Results follow in this order: KCNQ2 pot | KCNQ2 pot baseline
O=P(c1ccccc1)(c1ccccc1)c1cc(S(=O)(=O)O)ccc1O
 : 1.14 | -1.79
CCOCCCNC(=O)C(NC(=O)c1ccc2c(c1)OCO2)c1ccccc1 (configuration not stated)
 : 1.37 | 0.13
O=C(Cn1c(C(F)(F)F)nc2ccccc21)N=Nc1c(O)[nH]c2ccc(Br)cc12
 : 0.31 | -1.13
O=C(Cc1ccc(-n2cnnn2)cc1)NC12CC3CC(CC(C3)C1)C2
 : 6.18* | -0.98*
O=c1[nH]nc(Cc2ncc(C(F)(F)F)cc2Cl)c2ccccc12
 : 0.5 | -0.39
COc1ccc(C(=O)NC(=S)N(Cc2ccccc2)Cc2ccccc2)cc1
 : 19.4* | 2*
Oc1ccc(C(=S)N2CCCCC2)cc1Cl
 : 1.93 | 0.03
Cc1ccc2nc(C3CCCCC3)[nH]c2c1
 : 0.98 | 0.92
CCC(C)NC(=O)Cn1cc2c(n1)CCC(C)C2 (configuration not stated)
 : 0.88 | 0.41
COc1ccc(Nc2nc(C)cc(C)c2C(N)=O)c(OC)c1
 : 0.47 | 0.01
CCCCC(c1nnnn1CC1CCCO1)N1CCN(c2ccccc2)CC1 (configuration not stated)
 : 1.05 | 0.38
Cc1ccc(-n2nnnc2-c2nc3ccccc3s2)cc1
 : 1.36 | -0.26
Cc1nnsc1C(=O)N/N=C/c1ccc2ccccc2c1O
 : 1 | 0.49
CN(C)S(=O)(=O)c1ccc(N2CCCC2)c(C(=O)OCC(=O)N2CCN(c3ccccc3)CC2)c1
 : 1.13 | -4.55
Clc1ccc(COn2ccnc2)cc1Cl
 : 0.81 | -0.29
CCOC(=O)N1CCN(S(=O)(=O)c2cc(OCC(N)=O)c(C)cc2Cl)CC1
 : 0.3 | -0.43
NNC(=O)c1cccc(COc2cccc(Br)c2)c1
 : 0.3 | 0.01
CCOc1ccc(NC(=O)CN2C(=O)C3CC=CCC3C2=O)cc1 (configuration not stated)
 : 0.03 | -0.91
Cn1c(SCC(=O)Nc2cccc(F)c2)nc2c(c1=O)SCC2
 : 0.37 | 3.19
COc1ccc(OC)c(C2C(C(N)=O)=C(C)Nc3nc(-c4cccc(Cl)c4)nn32)c1 (configuration not stated)
 : 1.15 | -0.69
O=C(Nc1cccc(-c2nn[nH]n2)c1)c1cccs1
 : 1.52 | 1.19
Cc1cc2cc(C(c3nnnn3Cc3ccco3)N3CCc4ccccc43)c(=O)[nH]c2cc1C (configuration not stated)
 : 3.3 | 0.04
Cc1ccc(NC(=O)c2ccsc2)cc1NS(C)(=O)=O
 : 1.17 | -0.41
COc1ccc(NC(=O)CCNC(=O)Cn2cnc3ccccc3c2=O)cc1OC
 : 0.13 | 1.74
O=Cc1ccc(OC(=O)CCCCC(=O)Oc2ccc(C=O)cc2)cc1
 : 0.23 | 0.01
Cc1ccc2nc(NC(=O)c3ccco3)sc2c1
 : 0.98 | -0.67
CO/C([O-])=N/c1c[n+](-c2ccc(Cl)cc2)no1
 : 1.89 | 0.04
CN(C)S(=O)(=O)c1cccc(N=c2scc(-c3ccc4c(c3)NC(=O)CO4)n2CC2CCCO2)c1 (configuration not stated)
 : 0.57 | -0.55
CC(CN1CCN(C/C=C/c2ccccc2)CC1)c1ccccc1 (configuration not stated)
 : 2.56 | -0.14
Cc1cc(C)n2nc(C(=O)OCC(=O)c3c[nH]c4ccccc34)nc2n1
 : 1.38 | -3.04

No new results follow: an excerpt of the list.
Results follow in this order: KCNQ2 pot | KCNQ2 pot baseline
COc1ccc(NC(=O)CCNC(=O)Cn2cnc3ccccc3c2=O)cc1OC
 : 0.13 | 1.74
O=Cc1ccc(OC(=O)CCCCC(=O)Oc2ccc(C=O)cc2)cc1
 : 0.23 | 0.01
Cc1ccc2nc(NC(=O)c3ccco3)sc2c1
 : 0.98 | -0.67
CO/C([O-])=N/c1c[n+](-c2ccc(Cl)cc2)no1
 : 1.89 | 0.04
CN(C)S(=O)(=O)c1cccc(N=c2scc(-c3ccc4c(c3)NC(=O)CO4)n2CC2CCCO2)c1 (configuration not stated)
 : 0.57 | -0.55
CC(CN1CCN(C/C=C/c2ccccc2)CC1)c1ccccc1 (configuration not stated)
 : 2.56 | -0.14
Cc1cc(C)n2nc(C(=O)OCC(=O)c3c[nH]c4ccccc34)nc2n1
 : 1.38 | -3.04

(list continues)
Results follow in this order: KCNQ2 pot | KCNQ2 pot baseline
Cn1c(CCN2CCOCC2)nc2cc(NC(=O)COc3ccccc3)ccc21
 : 1.29 | -0.19
Brc1cnc(N2CCCC2)nc1N1CCCCC1
 : 0.37 | 1.11
Cc1cccc(N2CCN(C(=O)c3cc(=O)[nH]c4ccccc34)CC2)c1C
 : 0.02 | -0.17
O=C(CN1C(=O)C2CC=CCC2C1=O)Nc1ccc(S(=O)(=O)Nc2nccs2)cc1 (configuration not stated)
 : 0.01 | -0.25
COc1ccc(S(=O)(=O)NC2(C(F)(F)F)NC(=O)N(CCc3ccccc3)C2=O)cc1 (configuration not stated)
 : 0.48 | -1.16
CCCc1cc(C(=O)Nc2ccc(C(=O)c3ccc(C)cc3)cc2)n(C)n1
 : 0.07 | -1.4
CCc1cc(=O)[nH]c(SC/C=C/c2ccccc2)n1
 : 2.03 | 0.56
N#Cc1c(N)c(C(=O)c2ccccc2)n2c1CCC2
 : 1.09 | 0.81
CCN(CC)C(=O)c1cn(CCC#N)nc1-c1ccc(F)cc1
 : 0.11 | -0.05
COc1ccc(CCNC(=O)C2CCCN2C(=O)Nc2cccc(OC)c2)cc1 (configuration not stated)
 : 1.36 | -0.99
Cc1ccc(NC(=O)N2CCN(Cc3ccc4c(c3)OCO4)CC2)cc1
 : 0.4 | -0.69
CN(C)c1ccc(-c2nn3c(-c4ccccc4Cl)nnc3s2)cc1
 : 0.35 | 0.5
CCc1nccn1CCC(=O)NC1CCCc2c1cnn2-c1ccc(F)cc1F (configuration not stated)
 : 1.01 | -0.49
CC(C)C(=O)N1CCN(c2ccc([N+](=O)[O-])c(NC(C)c3ccccc3)c2)CC1 (configuration not stated)
 : 0.6 | -1.18
COC(=O)c1cc(S(=O)(=O)N2CCCC2)c(Cl)cc1Cl
 : 0.5 | -0.57
O=C(O)C1CCCN1C(=O)Nc1ccc(F)cc1 (configuration not stated)
 : 0.5 | -0.87
NS(=O)(=O)c1ccc(NC(=S)Nc2ccc(F)c(F)c2)cc1
 : 1.1 | 0.42
Cc1ccc([C@@H]2[C@@H]3C(=O)N(C)C(=O)[C@@H]3[C@]3(Cc4ccccc4)C(=O)N(CCO)CC(=O)N23)o1
 : 0.11 | 0.83
COc1cc(Cl)c(C)cc1NC(=O)CSCC#N
 : 0.85 | 1.05
Cc1nnc(SCC2CCCO2)n1-c1ccccc1 (configuration not stated)
 : 0.6 | -0.35
Cc1ccc(CNC(=O)[C@@H]2CCC(=O)N2Cc2ccco2)cc1
 : 0.36 | -0.76
CCn1c(N2CCC(Cc3ccccc3)CC2)nc2c1c(=O)[nH]c(=O)n2C
 : 0.27 | 0.39
COCc1cc(=O)n2c(-c3ccc(C)cc3)n[nH]c2n1
 : 2.88 | -0.05
Cc1ccc(C)c(NC(=O)CN(C)C(=O)c2ccc(-n3cncn3)c([N+](=O)[O-])c2)c1
 : 2.27 | -1.07
COc1ccc(OC)c(NC(=O)Nc2ccc3c(c2)OCO3)c1
 : 0.23 | 1.04
O=C(O)c1sccc1SCc1ccc(Cl)cc1Cl
 : 0.57 | -0.02
CC1CCCCN1C(=O)Cn1cc(C=O)c2ccccc21 (configuration not stated)
 : 0.18 | 0.44
Cc1ccc(OC(=O)C(F)(F)F)c2c1NCCC2
 : 2.27 | -0.8
COc1ccc(NC(=O)C2CCCN2C(=O)NCc2ccccc2)cc1OC (configuration not stated)
 : 0.28 | -0.62
CCOc1ccc(Cl)cc1S(=O)(=O)n1cnc2ccccc21
 : 0.46 | 0.29

Quoted from the listing.
CC1CCCCN1C(=O)Cn1cc(C=O)c2ccccc21 (configuration not stated) in KCNQ2 pot baseline → 0.44
Cc1nnc(SCC2CCCO2)n1-c1ccccc1 (configuration not stated) in KCNQ2 pot baseline → -0.35

Later entries.
Results follow in this order: KCNQ2 pot | KCNQ2 pot baseline
CCOc1ccccc1NC(=O)c1ccccc1NS(C)(=O)=O
 : 2.17 | -0.84
CC1C(=O)Nc2ccc(S(=O)(=O)N3CCc4ccccc4C3)cc2NC1=O (configuration not stated)
 : 0.83 | 0.78
CCn1c2ccccc2c2nnc(SCC(=O)c3c(N)n(C)c(=O)n(C)c3=O)nc21
 : 0.23 | -0.54
CCCCn1c(SCc2nc(N)nc(N3CCCCC3)n2)nc2c1c(=O)n(C)c(=O)n2C
 : 1.22 | -1.45
O=C(c1ccc(C(F)(F)F)cc1)N1CCCCC1
 : 2.48 | -0.62
CCOc1ccccc1OCCCNCc1ccco1
 : 0.12 | 1.44
CCOC(=O)c1c(C)[nH]c(O)c1C=Nc1ccc(Cl)cc1
 : 1.51 | 0.19
O=C(Nc1sc2c(c1C(=O)c1ccc(Cl)cc1)CCCC2)c1cccnc1
 : 0.36 | 0.89
O=C(c1ccc(Cl)s1)N1CCN(c2ncccn2)CC1
 : 0.01 | -0.62
Cc1ccc(OCC(=O)NCCCNC(=O)c2ccccn2)cc1
 : 0.49 | -1.98
CC1CCN(C(=O)c2cc(-c3ccco3)on2)CC1
 : 0.38 | -0.46
CC(C)CNS(=O)(=O)c1ccc(CCC(=O)N2CCN(c3ccc(F)cc3)CC2)cc1
 : 1.27 | -1.41
O=C(NCc1ccccc1)C1CCN(S(=O)(=O)N2CCOCC2)CC1
 : 1.43 | -0.87
Cc1occc1C(=O)NNC(=S)Nc1ccccc1C(F)(F)F
 : 0.25 | 1.28
c1ccc(C[C@H]2CNCCN2CC2(c3ccccc3)CC2)cc1
 : 0.49 | -1.06
CN(C)CCCN(C(=O)C1COc2ccccc2O1)c1nc2cc3c(cc2s1)OCO3 (configuration not stated)
 : 1.56 | -0.07
Cc1ccc(C2=NN(CCC(=O)NCCCN3CCOCC3)C(=O)CC2)cc1
 : 0.47 | 0.89
O=C(N/N=C\c1ccc(F)cc1)c1ccc(Cn2cc(Br)c([N+](=O)[O-])n2)o1
 : 1.07 | -1.03
CCOc1cc(/C=C2\N=C(SC)SC2=O)cc([N+](=O)[O-])c1OC(C)=O
 : 0.58 | 0.13
CNS(=O)(=O)c1cc(OC)ccc1OC
 : 0.45 | -0.99
O=C1CCC2S/C(=C/Nc3ccc(C(F)(F)F)cc3)C(=O)N12 (configuration not stated)
 : 1.76 | -0.87
CCCCN1C(=O)NC(NC(C)=O)(C(F)(F)F)C1=O (configuration not stated)
 : 0.42 | -0.77
COCCNC(=O)COC(=O)CSCc1nc2ccccc2s1
 : 0.13 | -1.49
Cc1ccc(-c2nc(-c3ccncc3)no2)cc1C
 : 3.01 | -3.94
c1ccc(OCc2noc(CN3CCC(C4CCCCC4)C3)n2)cc1 (configuration not stated)
 : 0.63 | 0.67
CCN(C(=O)COC(=O)c1cccnc1SC)C1CCS(=O)(=O)C1 (configuration not stated)
 : 0.06 | -0.25
Cc1ccc(C)c(NC(=O)CSc2nc3nc(-c4cccs4)cc(C(F)(F)F)c3c(=O)[nH]2)c1
 : 6.38* | -2.92*
CCN(c1ccc(OC)cc1)S(=O)(=O)c1cc(-c2cc(C)no2)ccc1OC
 : 0.59 | -1.01
COC(=O)[C@@H](NC(=O)N1CCN(c2cccc(C(F)(F)F)c2)CC1)C(C)C
 : 0.21 | -0.7
CC(=O)Nc1ccc(NC(=O)C(=O)c2cn(CC(=O)N3CCCCC3)c3ccccc23)cc1
 : 0.38 | 1.09
Cc1cc(C)n(-c2cc(N3CCOCC3)ncn2)n1
 : 0.13 | 0.44
COC(=O)c1ccccc1-c1ccc(C=O)o1
 : 0.05 | -0.07
CC1(C)CC(=O)C(Sc2nnc(-c3ccc(O)cc3)n2CC2CCCO2)C(=O)C1 (configuration not stated)
 : 0.14 | -1.83
O=C(NC(=S)Nc1nc(-c2ccccc2)cs1)c1ccco1
 : 5.43* | 1.3*
CCOc1ccccc1N1C(=O)CC(Sc2n[nH]c(-c3ccccc3)n2)C1=O (configuration not stated)
 : 0.41 | 1.13
CC1CCCCN1CCCNC(=O)c1ccc(N2CCCC2=O)cc1 (configuration not stated)
 : 0.24 | -1.4
CN(C1CCCC1)C1CCN(C(=O)CNC(=O)/C=C/c2ccc(F)cc2)CC1
 : 0.5 | 0.1
CC(C)(O)C#Cc1ccc(CN2CCN(CCc3ccccc3)C(CCO)C2)s1 (configuration not stated)
 : 0.06 | 0.53
COc1cccc(CNC(=O)Cn2nc(C)c([N+](=O)[O-])c2C)c1
 : 0.68 | -1.08
Cc1cc(=O)[nH]c(/N=C(\N)Nc2ccc(Oc3ccccc3)cc2)n1
 : 1.34 | -0.98
NC(=O)C1CC(=O)N(c2ccc(OCc3ccc(F)cc3)cc2)C1 (configuration not stated)
 : 0.15 | 1.65
Nc1ncn(CC(=O)c2ccccc2)n1
 : 0.42 | -2.57
COc1ccc(CN(C)C(=O)Cc2ccsc2)c(OC)c1OC
 : 0.11 | 1.87
CC(C)Sc1nnc(NC(=O)C2CC2)s1
 : 0.26 | 0.35
C/C(=N/NC(=O)Cc1cc(=O)[nH][nH]1)c1ccc([N+](=O)[O-])cc1
 : 1.12 | 1.09
Cc1onc(-c2ccccc2Cl)c1C(=O)N1CCN(C=O)CC1
 : 0.23 | -0.33
CCn1c2ccccc2c2cc(/C=N/n3cnnc3)ccc21
 : 0.52 | 0.76
O=C(CCn1[nH]c(=O)c2ccccc2c1=O)NCCO
 : 0.57 | 0
CC1=C(C(=O)OCC(C)C)C(c2ccc(Br)s2)NC(=O)N1 (configuration not stated)
 : 1.04 | -0.02
